Screening data (PubChem)
TRPML1 agonist: human mucolipin-1 channel agonism. Q9GZU1. TRPML1-expressing cells, Ca2+ dye fluorescence, FDSS; host cell line not named in the record; reference of the full effect not given here. activation, % (concentration not given with the values). 410,000 tested, 0.12% active. AID 624414; in the data active = activation above about 50%; inconclusive = about 30% to 50%; inactive = below about 30%; further: 0% is about no effect; the text of the record puts the active cut at 80%
Target sequence (Q9GZU1 whole entry, looked up): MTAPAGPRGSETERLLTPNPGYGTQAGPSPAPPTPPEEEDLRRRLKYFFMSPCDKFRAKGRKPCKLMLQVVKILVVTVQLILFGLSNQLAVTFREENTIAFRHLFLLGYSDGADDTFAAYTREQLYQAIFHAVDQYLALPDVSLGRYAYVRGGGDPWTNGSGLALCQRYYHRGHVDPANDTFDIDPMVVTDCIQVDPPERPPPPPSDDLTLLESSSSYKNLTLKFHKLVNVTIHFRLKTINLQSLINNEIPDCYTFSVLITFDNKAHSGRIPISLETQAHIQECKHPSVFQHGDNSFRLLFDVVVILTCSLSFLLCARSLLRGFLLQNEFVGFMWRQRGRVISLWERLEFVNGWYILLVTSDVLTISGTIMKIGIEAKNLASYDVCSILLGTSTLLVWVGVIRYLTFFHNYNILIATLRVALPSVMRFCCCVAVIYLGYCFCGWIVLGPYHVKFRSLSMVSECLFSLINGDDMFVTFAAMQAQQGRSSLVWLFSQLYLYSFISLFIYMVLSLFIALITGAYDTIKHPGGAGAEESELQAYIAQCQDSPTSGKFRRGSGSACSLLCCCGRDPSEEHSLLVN
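TRPML1-DL cells, Tet-induced overnight (~16 h, 37 degrees C), loaded 45-90 min at room temperature with Ca8 no-wash calcium dye plus quencher. FDSS fluorescence: 10 s baseline, compound pin-transfer, 110 s agonist read, then EC80 54-4 (4uM final) and 110 s antagonist read.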
Six1-Eya2 blk: blocks human Six1 binding to Eya2. AID 651725. activity change, % (no concentration beside the values). 360,000 tested, 0.56% active. AlphaScreen GST-Six1/His-Eya2 binding, biochemical; stronger effect = lower value; control for the full effect not named in the record. Q15475+O00167; in the data active = activity change below about -65%; inconclusive = about -30% to -65%; inactive = above about -30%; further: on the % scale 0 is the no-effect control and ±100 the full control effect; compound concentration not given in the record
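GST-Six1 + His-Eya2 (5X stock: 250/500 nM); Tris pH 8.0, 300 mM NaCl, 0.05% BSA, 0.02% Tween 20; GSH donor/Ni acceptor beads; 1 h 37 °C dark; AlphaScreen readout.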
D2 agonist: agonists of human D2 dopamine receptor (beta-arrestin); P14416; DiscoveRx PathHunter D2 beta-arrestin, luminescence, 90 min; 100% = 57 uM dopamine signal; activation, % (concentration not given with the values); 360,000 tested, 0.084% active; AID 624465; in the data active = activation above about 40%; inconclusive = about 15% to 40%; inactive = below about 15%; further: compound concentration not given in the record; the text of the record calls up to 30% inactive
Target sequence (P14416 whole entry, looked up): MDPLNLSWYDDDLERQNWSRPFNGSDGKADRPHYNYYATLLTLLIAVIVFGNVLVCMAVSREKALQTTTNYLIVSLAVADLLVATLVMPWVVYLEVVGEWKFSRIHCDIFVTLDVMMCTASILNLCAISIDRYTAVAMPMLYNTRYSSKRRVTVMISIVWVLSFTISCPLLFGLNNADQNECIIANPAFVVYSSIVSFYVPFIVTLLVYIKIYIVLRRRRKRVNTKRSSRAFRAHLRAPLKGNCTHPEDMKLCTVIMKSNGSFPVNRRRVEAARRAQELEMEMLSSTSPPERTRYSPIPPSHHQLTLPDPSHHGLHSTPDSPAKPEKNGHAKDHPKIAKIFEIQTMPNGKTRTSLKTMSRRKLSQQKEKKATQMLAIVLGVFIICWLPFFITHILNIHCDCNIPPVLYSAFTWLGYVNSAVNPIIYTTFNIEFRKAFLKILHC
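Agonist mode: compounds alone added to overnight-plated D2 PathHunter cells for 90 min at 37 C, with 57 uM final dopamine (EC100) defining full response. Beta-arrestin recruitment detected by chemiluminescent reagent, read after 1 h at ambient temperature.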
TRPML1 inh: human mucolipin-1 channel inhibition; Q9GZU1; TRPML1-inducible cells, Ca2+ dye fluorescence, FDSS; stronger effect = lower value; inhibition of EC80 agonist-evoked calcium signal; activity change, negative = inhibition, % (test concentration not listed); 390,000 tested, 0.02% active; in the data active means activity change below about -50%; inconclusive means about -30% to -50%; inactive means above about -30%;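 further: stimulus is agonist 54-4 at its EC80 concentration; on the % scale 0 is the no-effect control and ±100 the full control effect; compound concentration not given in the record; the text of the record puts the active cut at -80%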
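Calcium fluorescence in TRPML1-DL cells induced overnight with Tet: a 110 s read after compound pin addition, then a 110 s antagonist read after challenge with 54-4 at 4 uM final (EC80).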
PINK1 expr mod: modulators of PINK1 expression; PINK1 immunofluorescence, high-content cytometry, 24 h; AID 624263; 410,000 tested, 0.2% active; Potency, µM (titrated, usually from 76.6 µM), inactives show top-dose activation (PINK1 increase), hits mostly activators; active = well fitted activation curve with a large enough effect; inconclusive = small, poorly fitted or top-dose-only effect; inactive = flat fitted curve, though single readings scatter; cell line not stated here;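 further: potency means the concentration at half of the fitted maximal effect; % of control where 0% means no effect; nearly all actives have a fitted effect of over 65% in size; a mitochondrial uncoupler was the plate control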
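PINK1 protein level read as immunofluorescence by microplate cytometer in a fixed, stained stable cell line after 24 h exposure to five compound concentrations, with CCCP as control.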
CtBP-E1A blk: blocks the CtBP interaction with E1A; activity change, % (no concentration beside the values); 340,000 tested, 0.49% active; AlphaScreen GST-E1A/His-CtBP binding, 1536-well; stronger effect = lower value; control for the full effect not named in the record; AID 651724; in the data active means activity change below about -65%; inconclusive means about -30% to -65%; inactive means above about -30%; further: on the % scale 0 is the no-effect control and ±100 the full control effect; compound concentration not given in the record
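Steps: dispense buffer (Tris pH 8.0, NaCl 300 mM, TCEP 1 mM, BSA, Tween 20); add 5X protein mix (GST-E1A, His-CtBP, 125 nM each); pin 23 nL compound; 2 h at 37 °C, dark; add 5X beads (50 ug/mL); 1 h; read.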
* = called active by the depositor; ? = inconclusive; · = not tested or not shown; & = joins results of further samples; [ ] = remark or other dose.

cpd	SMILES	TRPML1 agonist	Six1-Eya2 blk	D2 agonist
1	CC1CN(C(=O)c2ccc(OC3CCN(Cc4ccccn4)CC3)cc2)CCN1C (stereo not drawn)	0.8	-5	-3.7
2	CCOc1ccc(CN2CCN(C(=O)c3ccco3)CC2)cc1	0.4	2	54*
3	CC(=O)c1c(C)nc(Nc2nc(C)c3cc(C)ccc3n2)nc1C	0.0	-4	-0.4
4	CC(C)Sc1ncnc2c1oc1ccccc12	0.0	12	-1.0
5	O=C1CC(c2ccc(F)cc2)c2cc3c(cc2N1)CCC3 (stereo not drawn)	1.3	-13	-1.7
6	CC(CCn1cccn1)NC(=O)CCc1nnc(C2CCCCC2)o1 (stereo not drawn)	-0.6	2	-0.9
7	O=C(COc1ccc(Br)cc1)N1CCN(S(=O)(=O)/C=C/c2ccccc2)CC1	-0.3	0	-2.2
8	COc1ccc(OC)c(CNC(=O)c2nn(C)c3c2CS(=O)(=O)c2ccccc2-3)c1	1.3&-0.4	0	5.3
9	O=C(NCc1cccc(F)c1)c1cccc2c1C(=O)c1ccc(N3CCCC3)cc1S2(=O)=O	?	11	7.5
10	Cc1cc(Cl)c(S(=O)(=O)N2CCN(c3cccc(C)c3C)CC2)cc1OCC(N)=O	-0.2	0	0.0

cpd	TRPML1 inh	PINK1 expr mod	CtBP-E1A blk
1	-14	-0.4%	5
2	14	1.0%	-25
3	-3	-0.5%	31
4	9	-1.8%[38.3 µM]	19
5	-1	3.6%	-6
6	5	-0.8%	-2
7	-13	0.7%	-2
8	-25&-9	0.7%&1.3%	1
9	0	1.5%	13
10	-6	·	0

(list continues)
cpd	SMILES	TRPML1 agonist	Six1-Eya2 blk	D2 agonist
11	COC(=O)CCCNc1ncccc1[N+](=O)[O-]	0.3	5	-4.2
12	Cc1ccsc1C(=O)NCCC(c1ccccc1)c1ccccc1	-0.3	12	2.2
13	CCSc1nnc(NC(=O)COc2cccc3ccccc23)s1	-0.5	0	-3.0
14	COc1cccc(/C=N/NC(=O)C(=O)NCc2ccco2)c1OC	0.5	-2	0.0
15	O=[N+]([O-])c1ccccc1CNCCCCCO	0.0	-1	-3.7
16	FC(F)(F)Oc1ccc(Nc2nc3ccccc3o2)cc1	0.7	-7	2.1
17	Cc1cc(Br)c(Oc2cc(NN3CCCCC3)c([N+](=O)[O-])cc2[N+](=O)[O-])c(Br)c1	-0.5	1	-2.3
18	CCC(=O)NCCc1cc2cc(C)c(C)cc2[nH]c1=O	-1.2	2	-6.0
19	COc1cc(S(=O)(=O)n2c(C)nc3ccccc32)ccc1F	1.0	9	0.0
20	O=C(NNC(=S)NCc1ccccc1)c1cccc([N+](=O)[O-])c1	0.2	5	-3.6

cpd	TRPML1 inh	PINK1 expr mod	CtBP-E1A blk
11	22	0.8%	6
12	-4	26%	-6
13	-8	·	9
14	-10	0.4%	2
15	11	1.8%	4
16	-10	7.2%	-2
17	0	-0.4%	-1
18	12	-0.7%	2
19	9	11%	-1
20	-2	-1.9%	-18

Continued:
cpd	SMILES	TRPML1 agonist	Six1-Eya2 blk	D2 agonist
21	O=C(CNS(=O)(=O)c1ccccc1)NCC(=O)N1CCCCC1	-0.2	-4	0.5
22	CCc1cc(SC#N)cc(C)c1NC(=O)CCl	0.5	-17	-11
23	OCCC1CN(Cc2cnc(-c3ccccc3)s2)CCN1C1CCCCC1 (stereo not drawn)	-0.5	-10	-3.8
24	Cc1ccc(C(=O)N/C(=C\c2ccc(-c3cccc([N+](=O)[O-])c3)o2)C(=O)NC(C)(C)C)cc1	0.2	-5	-2.5
25	CCN(C(=O)c1ccc(NC(=O)Cc2ccccc2)cc1)c1ccccc1	0.2	-1	-5.9
26	O=C(N/N=C/c1cc(Br)cc(Br)c1O)c1cccc(N2CCCC2=O)c1	3.1	?	-4.1
27	CCCC(=O)Nc1ccccc1NC(=O)c1ccc(OC)cc1	-0.5	0	-6.8
28	Cc1ccccc1NC(=O)N1CCN(C(=O)c2ccco2)CC1	1.0	-9	0.4
29	O=C(Nc1ccc(Cl)cc1Cl)c1cc2ccccc2o1	0.5	0	5.5
30	Oc1ccccc1/C=N/NC(=S)NC1CC2CCC1C2 (stereo not drawn)	-0.9	-85*	10

cpd	TRPML1 inh	PINK1 expr mod	CtBP-E1A blk
21	14	-0.2%	2
22	31	1.1%	-11
23	6	-1.2%	-6
24	5	-2.1%	-5
25	15	-0.1%	2
26	23	11%	?
27	-2	1.6%	-3
28	-5	1.3%	·
29	-16	-0.4%	11
30	23	3.1%	-84*

(listing goes on)
cpd	SMILES	TRPML1 agonist	Six1-Eya2 blk	D2 agonist
31	CCc1ccc(NC(=O)CSc2nc(C)c(C(=O)Nc3ccccc3)c(-c3ccc(OC)c(OC)c3)c2C#N)cc1	-0.3	·	·
32	CCOc1ccc(NS(=O)(=O)c2cc(C(=O)N3CCN(C(C)=O)CC3)ccc2Cl)cc1	-0.2	1	-1.7
33	O=C(Nc1cc(Sc2ccccn2)cc([N+](=O)[O-])c1)c1ccc([N+](=O)[O-])cc1	-0.3	5	4.6
34	CCOC(=O)C1CCN(C(=O)c2ccccc2NS(=O)(=O)c2ccc(F)c(F)c2)CC1	1.2	4	1.8
35	O=C(NNC(=O)c1ccc2ccccc2c1)c1cccc(Br)c1	0.3	0	2.8
36	Cc1ccc(-c2n[nH]c(S(C)(=O)=O)c2C#N)cc1	-0.1	-5	-6.5
37	CCn1c(CSc2nncn2-c2ccc(OC)cc2)nc2cc(S(=O)(=O)N(C)C)ccc21	-1.1	-11	-3.8
38	COC(=O)c1ccc(-c2noc(CN3C[C@H]4CC[C@H]3C4)n2)cc1	0.1	0	1.1
39	Cc1ccc(NC(=O)CN(C)C(=O)CCC(=O)N2CCOCC2)cc1	1.3	1	-3.9
40	S=C(NCc1ccccc1)N1CCN(C(=S)NCc2ccccc2)CC1	1.3	4	12

cpd	TRPML1 inh	PINK1 expr mod	CtBP-E1A blk
31	7	2.7%	·
32	4	5.1%	-9
33	39	0.0%	24
34	4	-1.2%	2
35	10	2.2%	2
36	-2	0.1%	-7
37	91	-3.1%	-11
38	-21	2.6%	5
39	0	-3.6%	7
40	-4	5.3%	6

The list continues.
cpd	SMILES	TRPML1 agonist	Six1-Eya2 blk	D2 agonist
41	CCn1c(SCC(=O)Nc2ccc(C)cc2)nc2sc3c(c2c1=O)CCN(C)C3	-0.6	-3	-3.3
42	COc1ccc(S(=O)(=O)N2CCOC2CNC(=O)C(=O)NCCc2ccc(S(N)(=O)=O)cc2)cc1 (stereo not drawn)	0.2	0	-1.8
43	CCOC(=O)C1CCN(CC(=O)NC(=O)NC2CCCCC2)CC1	0.6	-3	-1.3
44	CC(NCc1nc2ccccc2n1C)C12CC3CC(CC(C3)C1)C2 (stereo not drawn)	-0.4	-7	-1.0
45	COc1ccccc1CNS(=O)(=O)c1ccc2c(c1)NC(=O)C(C)S2 (stereo not drawn)	-1.2	-1	0.7
46	CC(C)C[C@H]1CNC(=S)N1CC1CCN(CC2CCCC2)CC1	-0.1	1	0.7
47	C[C@H](NC(=O)C(c1ccccc1)c1ccccc1)c1ccccc1	3.4	7	2.6
48	COc1ccc(/C=C2\SC(=Nc3ccccc3Cl)NC2=O)c(OC)c1	-0.7	-5	-1.1
49	O=C(NCCCN1CCOCC1)c1cc(-c2cccc(Br)c2)nc2ccccc12	0.9	-18	-21
50	O=C(CN(Cc1ccccc1Cl)C(=O)Cn1nnc(-c2cccs2)n1)NCC1CCCO1 (stereo not drawn)	-0.3	-1	-0.3

cpd	TRPML1 inh	PINK1 expr mod	CtBP-E1A blk
41	29	-0.1%	-9
42	-10	2.1%	2
43	14	0.0%	-18
44	-21	8.8%	-9
45	13	-0.3%	3
46	-3	0.0%	-27
47	-8	0.3%	11
48	4	17%	-5
49	-20	2.3%	-27
50	-9	1.6%[38.3 µM]	-1

Going on with the list:
cpd	SMILES	TRPML1 agonist	Six1-Eya2 blk	D2 agonist
51	O=C1N/C(=C\c2ccccc2)C(O)=C1C=NCc1ccccc1	1.2	-1	-1.7
52	C[C@H](CO)N1C[C@H](C)[C@@H](CN(C)S(C)(=O)=O)Oc2c(NC(=O)Nc3ccc(C(F)(F)F)cc3)cccc2C1=O	1.1	6	-1.2
53	Cc1c(C(=O)O)cccc1-c1ccc(/C=C2/NC(=O)N(c3ccccc3)C2=O)o1	1.3	9	-5.6
54	O=C(COc1coc(CN2CCN(c3ccc(F)cc3)CC2)cc1=O)Nc1ccccc1	1.5	-1	-1.8
55	COc1ccc(C(=O)NNC(=O)CSc2nnc(-c3cccnc3)n2C)cc1	-0.1	4	-4.9
56	COc1ccc(OC)c(CN2CCCC(CCC(=O)N(C)CCc3ccccn3)C2)c1 (stereo not drawn)	0.5	4	-0.5
57	O=C(CCN1C(=O)NC2(CCCC2)C1=O)Nc1ccc(-c2nc3ccccc3s2)cc1	0.2	-30	-2.1
58	CC1(CCc2ccccc2)NC(=O)N(CC(=O)O)C1=O (stereo not drawn)	·	0	-5.9
59	Cc1noc(C)c1S(=O)(=O)Nc1ccc(C(=O)Nc2ccc(OC(F)(F)F)cc2)cc1	-0.7	1	1.0
60	Cc1ccc(C(=O)NCN2CCN(c3ccccc3)CC2)cc1	-0.3	0	0.9

cpd	TRPML1 inh	PINK1 expr mod	CtBP-E1A blk
51	21	5.3%	0
52	-10	0.5%	-6
53	2	0.1%	·
54	-12	12%	3
55	-1	-0.9%	·
56	-1	-1.7%	·
57	29	-2.0%	-19
58	·	2.9%	9
59	34	6.0%	-12
60	9	1.2%	4

Next part:
cpd	SMILES	TRPML1 agonist	Six1-Eya2 blk	D2 agonist
61	Clc1ccc(-c2ccc(CNCc3ccccn3)o2)cc1	·	-16	1.3
62	CCc1nc(SCc2ccc(C(=O)OC)o2)c2c(=O)n(C)c(=O)n(C)c2n1	0.4	-3	-1.8
63	CCc1ccccc1NC(=O)COc1ccc2c(=O)c(Oc3cc(C)ccc3C)coc2c1	2.4	26	-3.7
64	Cc1ccccc1-c1nc(CS(=O)(=O)CC(=O)N2CCN(C)CC2)c(C)o1	1.5	-4	-1.9
65	Cc1ccc(-c2nnn(C(C)C(=O)N3c4ccccc4CCc4ccccc43)n2)cc1 (stereo not drawn)	2.1	-14	-1.2
66	Cc1c(NC(=O)c2cc3c(s2)CCCC3)c(=O)n(-c2ccccc2)n1C	0.2	1	-4.3

cpd	TRPML1 inh	PINK1 expr mod	CtBP-E1A blk
61	·	2.0%	·
62	10	2.3%	-6
63	-29	4.7%	5
64	10	0.5%	-1
65	17	1.7%	-5
66	0	-0.8%	2

Three entries from above, set out differently:
64. Cc1ccccc1-c1nc(CS(=O)(=O)CC(=O)N2CCN(C)CC2)c(C)o1
65. Cc1ccc(-c2nnn(C(C)C(=O)N3c4ccccc4CCc4ccccc43)n2)cc1 (stereo not drawn)
66. Cc1c(NC(=O)c2cc3c(s2)CCCC3)c(=O)n(-c2ccccc2)n1C
screen / no.	64	65	66
TRPML1 agonist	1.5	2.1	0.2
Six1-Eya2 blk	-4	-14	1
D2 agonist	-1.9	-1.2	-4.3
TRPML1 inh	10	17	0
PINK1 expr mod	0.5%	1.7%	-0.8%
CtBP-E1A blk	-1	-5	2

Not a hit list; any-hit rate near 1%.
